VACV mCherry inh = vaccinia inhibition (mCherry reporter) | Vaccinia virus mCherry reporter infection, fluorescence; about a quarter of the inactives have no number | Potency, µM (top dose mostly 36.5 µM), for inactives: at the highest dose activity change, negative = inhibition, most hits filed as inhibitors | 310,000 compounds, 0.63% hits | AID 720579; active = well fitted inhibition curve with a large enough effect; inconclusive = small, poorly fitted or top-dose-only effect; inactive = no such curve, though single readings can be large or run the other way; tested in A549 cells; also: nearly all actives have a fitted effect of over 35% in size; inactives centre near -10
Vaccinia Venus = vaccinia inhibition (Venus reporter) | 330,000 compounds, 0.46% hits | Potency, µM (highest dose often 36.5 µM), inactives show top-dose activity change, negative = inhibition, usual class: inhibitors | Vaccinia virus Venus reporter expression, fluorescence; active means well fitted inhibition curve with a large enough effect; inconclusive means small, poorly fitted or top-dose-only effect; inactive means no such curve, though single readings can be large or run the other way; tested in A549 cells; also: nearly all actives have a fitted effect of over 30% in size; inactives centre near -10
Starred values were filed as active, the others as inactive; i = inactive; ? = inconclusive; / = no result given; [ ] = dose if it differs, or a comment. % is scaled to controls: 0 for no effect and ±100 for the full control effect; potency is read from the fitted curve at half-maximal effect.

SMILES	VACV mCherry inh	Vaccinia Venus
Cc1cc(C)c2c(N)c(C(=O)Nc3ccccc3Cl)sc2n1	-20.7%	?
O=C(Cc1cccc(C(F)(F)F)c1)Nc1ccc(S(=O)(=O)N2CCCC2)cc1	?	-19.9%
CCCN(C(=O)C1CCN(S(=O)(=O)c2c(C)noc2/C=C/c2ccc(C)cc2)CC1)c1ccccc1F	-6.6%[7.34 µM]	-7.7%[7.34 µM]
c1ccc2c(c1)oc1c(-c3cccc4nccn34)cccc12	9.8%	-29.1%
CCCCC1CC(C)(C(=O)CSc2nc3ccccc3s2)OC1=O (centres undefined)	/	4.9%
CN(C)S(=O)(=O)c1cc(NC(=O)c2ccc(-n3ccnc3)c([N+](=O)[O-])c2)ccc1Cl	-3.4%	-10.9%
CC1=C(C(=O)NCc2ccc3c(c2)OCO3)C2(CCC(C)CC2)OC1=O (centres undefined)	i	-6.0%
Cc1cc(C)cc(-n2c(SCC(=O)Nc3cccc(F)c3)nc3c([nH]c4ccccc43)c2=O)c1	3.9%	5.7%
Cc1nn(C)c(C)c1C1C(C#N)=C(N)OC2=C1C(=O)CC(C)(C)C2 (centres undefined)	-10.2%	-10.7%
Cc1nc(SCC(=O)c2ccc(F)cc2)c([N+](=O)[O-])[nH]1	/	-3.1%
CCC(=O)N1CCc2cc(S(=O)(=O)NC(C(=O)NCc3ccccc3Cl)C(C)C)ccc21 (centres undefined)	-6.0%	-0.4%
COc1cc(/C=C/C(=O)c2ccccc2O)cc(OC)c1OC	3.2%	-10.7%
O=C1NCCOC(=O)[C@H](Cc2ccc(F)cc2)CC/C=C/C[C@@H]1CC(=O)N(CCO)Cc1ccccc1	-27.9%	-25.6%
O=c1ccc2c(o1)/C(=C/C=C(Cl)Cl)CCC2	10µM*	?
O=c1[nH]c(=O)n(Cc2ccccc2)c(O)c1C=NCCCn1ccnc1	/	-6.7%
O=C(/C=C/c1c(F)cccc1Cl)Nc1ncccn1	-21.2%	-5.2%
COc1ccc(OCC(=O)N2CCN(c3nnc(-c4ccc(C)cc4)c4ccccc34)CC2)cc1	?	?
COc1ccc(CCNC(=O)CS(=O)(=O)Cc2nc(-c3cccc(Cl)c3)oc2C)cc1OC	-10.7%	-12.0%
COc1ccc(-c2ccc(CN3C(C)C(=O)N(Cc4cn(CCC5OCCCO5)nn4)CCS3(=O)=O)cc2)cc1 (centres undefined)	-11.6%	-12.7%
CCN1CCCC1CNC(=O)c1cnn(-c2nccc(-c3cc(OC)ccc3OC)n2)c1C (centres undefined)	i	-12.8%

Entries of single compounds, quoted from the list. Screens in order: VACV mCherry inh | Vaccinia Venus
Cc1cc(C)c2c(N)c(C(=O)Nc3ccccc3Cl)sc2n1 is entered as -20.7% | ?
O=C(/C=C/c1c(F)cccc1Cl)Nc1ncccn1 is entered as -21.2% | -5.2%
O=c1ccc2c(o1)/C(=C/C=C(Cl)Cl)CCC2 is entered as 10µM* | ?

(further entries)
SMILES	VACV mCherry inh	Vaccinia Venus
O=C(O)CCC(=O)Nc1ccc(Oc2ncnc3cc(Cl)ccc23)nc1	6.1%	19.2%
NNC(=O)c1ccccc1-n1cccc1	-5.3%	-10.5%
CCOC(=O)C1=C(CCl)NC(=O)NC1c1ccc2c(c1)OCO2 (centres undefined)	-26.2%	-21.1%
Cc1cc(C)nc(-n2ncc(C#N)c2N)n1	?	-13.3%
CC(C)c1nnc(NC(=O)CCC(=O)Nc2ccc(Cl)cc2)s1	-5.9%	6.9%
O=C(c1ccc(NC(=O)C2(c3ccccc3)CCCC2)cc1)N1CCOCC1	i	-11.2%
CCOc1ccc(C2C(C(=O)Nc3ccccc3OC)=C(C)Nc3c(C(=O)Nc4cccc(C)c4)cnn32)cc1 (centres undefined)	-0.7%	-16.0%
C/C(=N\NC(=O)c1ccc(F)cc1)c1ccc(N2CCOCC2)cc1	-9.3%	-15.6%
CCCCC(CC)C(=O)Nc1ccccc1C(=O)NC(C)C (centres undefined)	-19.9%	-11.8%
O=C(Nc1ccccc1)N1CCN(c2ccccn2)CC1	-19.0%	-13.0%
COc1ccc(C2NC(c3ccc(OC)cc3)C(C)C(=O)C2C)cc1 (centres undefined)	-18.9%	-8.8%
Cc1cccc(C(=O)NC2CCN(C(=O)NCc3ccccc3)CC2)c1	-0.4%	-6.2%
COc1ccc(S(=O)(=O)N2CCC(C(=O)N[C@H](C(=O)N3CCCCCC3)C(C)C)CC2)cc1	-2.3%	-5.7%
COC(=O)C1=NN(c2ccc(C)cc2)C2C(=O)N(c3ccccc3OC)C(=O)C12 (centres undefined)	-4.8%	-15.2%
COC(=O)/C(C#N)=C/N(C)C	-10.1%	6.8%
Cc1ccc(Cl)cc1NC(=O)c1cccc(NC(=O)N2CCSc3ncccc32)c1	-7.7%	-7.6%
O=C(/C=C/c1ccc(Cl)c(Cl)c1)NCc1ccco1	-8.7%	-7.8%
O=C(COC(=O)c1c(Cl)ccc(Cl)c1Cl)NC1CCS(=O)(=O)C1 (centres undefined)	1.1%	-1.6%
CCc1nn(CC(=O)NCc2ccc(C)cc2)c(=O)c2cc3occc3n12	-8.7%	2.8%
CC1=C(C(=O)N2CCOCC2)CC(CC(=O)NCCCN(C)C)C(=O)N1Cc1ccc(F)cc1 (centres undefined)	15.9%	4.1%

Compounds from the list above that have a nitro group on carbon:
SMILES	VACV mCherry inh	Vaccinia Venus
CN(C)S(=O)(=O)c1cc(NC(=O)c2ccc(-n3ccnc3)c([N+](=O)[O-])c2)ccc1Cl	-3.4%	-10.9%
Cc1nc(SCC(=O)c2ccc(F)cc2)c([N+](=O)[O-])[nH]1	/	-3.1%

Remaining list, next part:
SMILES	VACV mCherry inh	Vaccinia Venus
O=C(Nc1ccc2nc(SCC(=O)N3CCc4ccccc43)sc2c1)c1ccccc1F	i	2.1%
CC1(C(=O)NS(=O)(=O)C2CC2)CCCN(C(=O)c2c(F)cccc2F)C1 (centres undefined)	40.5%[activator]	-2.4%
O=C(NN1CC(C(=O)OCc2ccccc2F)CC1=O)c1ccccc1 (centres undefined)	-18.9%	-14.7%
CCc1ccccc1NC(=O)C1CCN(c2nc3ccccc3[nH]2)CC1	-8.1%	-9.3%
COc1ccccc1N1CCN(CCCN2CC(=O)N3CCCCC3C2=O)CC1 (centres undefined)	-29.2%	-21.2%
COc1ccc(S(=O)(=O)N2CCCC(C(=O)NCc3ccco3)C2)cc1OC (centres undefined)	-2.3%	-13.7%
COc1cccc(-c2cnc(C(O)c3cc(F)cc(Cl)c3)[nH]2)c1 (centres undefined)	15.7%	-20.1%
C=CCOc1ccn(C)c(=O)n1	i	-8.0%
CN(c1ccc(C(=O)Nc2ccccc2Sc2ccccc2)cc1)S(C)(=O)=O	/	-34.1%
CC(=O)NC(=S)Nc1sc2c(c1C#N)CCCCC2	i	-10.6%
OCCNc1nc(Nc2ccc(Br)cc2)nc2ccccc12	?	-24.8%
O=C(/C=C/c1ccc(F)cc1)NC(=S)N1CCCCC1c1cccnc1 (centres undefined)	?	-5.1%
O=C(NC(Cc1ccccc1)C(=O)O)/C(=C/c1ccccc1)NC(=O)c1ccc(Br)o1 (centres undefined)	-11.6%	-9.3%
Cc1cccc(-n2nc(C(=O)c3ccco3)cc(-c3nc4ccccc4[nH]3)c2=N)c1	?	-28.1%
CCc1cc2c(N3CCN(c4nnc(CC)s4)CC3)ncnc2s1	12.6µM*	?
COc1ccccc1C(=O)N/N=C(\C)CC(=O)Nc1ccc(Nc2ccccc2)cc1	-12.9%	-11.3%
Cc1nn2c(=O)cc(COC(=O)c3cccc(NC(=O)CCc4ccccc4)c3)nc2s1	i	-14.7%
Cc1c(NC(=O)C(=O)N/N=C/c2cccs2)c(=O)n(-c2ccccc2)n1C	-11.4%	-0.7%
Cc1ccc(N2CCN(c3ccc(NC(=O)CCC(=O)O)cc3)CC2)cc1	i	-0.7%
COc1ccc(S(=O)(=O)Nc2nc3ccccc3nc2NCc2ccc3c(c2)OCO3)cc1	-10.1%	-8.0%
CC1=C(Cl)C2=NS(=O)(=O)CCN2C=C1Cl	-7.3%	-0.4%
CCOc1cc(/C=N\NC(N)=O)cc(Br)c1OC(C)C	-8.5%	-24.2%
O=C(O)c1cncc(C#Cc2ccccc2)c1	i	-3.0%
CC1(c2ccc(Cl)cc2Cl)NC(=O)N(CC(=O)Nc2cccnc2Cl)C1=O (centres undefined)	-19.8%	-10.3%
O=C(O)c1cc([N+](=O)[O-])ccc1N1CCCCC1	-18.6%	-14.1%
COc1ccc(C(=O)/C=C(\C)Nc2ccc(NC(C)=O)cc2)cc1	-7.2%	-11.5%
Cc1cc2[nH]c3ccccc3c2cn1	-9.5%	-5.5%
O=C(/C=C/c1cccc(Cl)c1)NCCc1ccccc1	-12.0%	-7.3%
COc1ccc(-n2nnnc2C(c2cccs2)N2CCN(C/C=C/c3ccccc3)CC2)cc1 (centres undefined)	i	5.4%
CCC(=O)Nc1nc2ccc(NC(=O)COc3ccccc3)cc2s1	-13.6%	-5.4%
CCC(Sc1nc(-c2ccccc2)cc(=O)[nH]1)C(=O)O (centres undefined)	-13.0%	-4.7%
Cc1ccc(C(=O)CCC(=O)N(C)CC(=O)Nc2ccccc2Br)cc1	-18.1%	-16.6%
N#Cc1c(Nc2ccccc2)c(C=O)c[nH]c1=O	-12.6%	4.0%
CCCOCC(O)CCc1n[nH]c(=S)n1-c1ccccc1 (centres undefined)	6.7%	-4.0%
COc1ccccc1NC(=S)N1CCN(c2nc(-c3ccccc3)cs2)CC1	-18.5%	-9.7%
CC1(C)CC(=O)C(C=N)=C(O)C1	/	-16.1%
COc1ccc(NC(=O)CSc2n[nH]c(-c3ccccn3)n2)cc1	?	?
Nc1c(N(Cc2ccccc2)C(=O)CCc2ccccc2)c(=O)[nH]c(=O)n1Cc1ccccc1	-8.6%	-15.5%
Cc1ccc(S(=O)(=O)C(CNC(=O)c2ccccc2F)c2cccs2)cc1 (centres undefined)	1.4%	-11.7%
CCN1C/C(=C\c2cc(OC)c(OC)c(OC)c2)C2=NN(c3ccccc3)C(c3cc(OC)c(OC)c(OC)c3)C2C1 (centres undefined)	i	-11.0%
CCCCN(CCCC)Cc1cc(=O)oc2cc(C)cc(C)c12	13.7%	1.4%
Fc1ccc(N2CCN(c3nnnn3-c3ccccc3)CC2)cc1	-22.3%	-11.9%
CC(=O)Nc1cccc(-c2nc3ccccc3[nH]2)c1	6.7%	-2.3%
CCNC(=S)Nc1ccc2c(c1)c(=O)n(C)n2Cc1cccc(C(F)(F)F)c1	-3.7%	-10.4%
CSc1ccc(CN(C)C(=O)c2cc3ccccc3o2)cc1	0.5%	-12.4%
Cc1ccc(OCCOCCN2CCN(C)CC2)c([N+](=O)[O-])c1	i	-10.2%
CC1CCN(C(=O)Cn2cnc3c2c(=O)n(C)c(=O)n3C)c2ccccc2S1 (centres undefined)	-5.6%	-12.8%
COc1cc(CN2C[C@@H](CO)O[C@@H](n3cnc4c(NC5CCC5)ncnc43)C2)cc(OC)c1OC	0.0%	12.6%
COc1ccc(S(=O)(=O)Cc2ccc(C(=O)N3CCN(c4cc(Cl)ccc4C)CC3)o2)cc1	3.9%	-11.1%
CCOC(=O)n1c(=O)n(Cc2ccc(OC)cc2)c2ccccc21	?	?
COC(=O)C1C(=O)C=C(Nc2ccc(F)cc2F)CC1c1ccc(OC)cc1 (centres undefined)	-5.1%	1.6%
CCOc1ccc(-n2cc(C(=O)N3CCC(C)CC3)c3cc(OC)c(OC)cc3c2=O)cc1	-23.9%	-19.0%
CCCCn1c2nc3ccccc3nc2c2c(=O)n(CCC(C)C)cnc21	i	-2.7%
C#CCOCCOCCOCCNc1nc(N2CCN(C(=O)[C@H](CCCCN)n3cc([C@@H](N)[C@H](C)CC)nn3)CC2)nc(N2CCN(C(=O)[C@H](CCC(=O)O)n3cc([C@@H](N)CCCCN)nn3)CC2)n1	i	-12.3%
CCOC(=O)Cn1c(=NC(=O)c2cccs2)sc2cc(C(=O)OC)ccc21	-13.3%	-6.9%
Brc1ccccc1C1=Nn2c(nnc2-c2ccco2)SC1	i	-12.3%
CC1(C)CC2CC(C)(CN2CC(=O)C(C#N)c2ccccc2)C1 (centres undefined)	-13.7%	-12.5%
O=C(COC(=O)C1CCN(S(=O)(=O)c2ccc3c(c2)OCCO3)CC1)NC1CCS(=O)(=O)C1 (centres undefined)	-4.7%	-5.0%
Cc1nc(N2CCOCC2)c2c(C)c(C(=O)Nc3ccccc3C(F)(F)F)sc2n1	i	-1.6%
COc1ccccc1NC(=O)CN1CCN(c2ccc(F)cc2)CC1	-6.3%	-12.9%
(listing goes on)
SMILES	VACV mCherry inh	Vaccinia Venus
CCN(CC)c1ccc(/C=C2/SC(=O)N(C(C)C)C2=O)o1	-20.9%	57.8%[activator]
Cc1ccccc1-c1nc2c(=O)n(C)c(=O)nc-2n(C)n1	2.82µM*	0.891µM*
COc1ccc(-n2c(C)cc(/C=N/Nc3nc(N4CCOCC4)nc(N4CCOCC4)n3)c2C)cc1	-13.8%	-10.4%
c1ccc(CN2CCN(C3=Nc4cccc5cccc3c45)CC2)cc1	-25.6%	-12.0%
O=C1CC(c2ccccc2)Cc2[nH]c(=O)c(C(=O)Nc3cccc(F)c3)cc21 (centres undefined)	-4.0%	-4.5%
COc1ccc(NC(=O)NC(C)(C(F)(F)F)C(F)(F)F)cc1	-15.9%	-2.4%
Cc1ccc(Nc2nc(N)nc(CN3CCCCCC3)n2)c(C)c1	/	?
Cc1ccc(NC(=O)C2CCCN(S(=O)(=O)c3ccc4c(c3)CCCC(=O)N4)C2)cc1N(C)C (centres undefined)	-17.1%	-6.6%
O=c1/c(=C\c2ccc(O)cc2)sc2n1C(c1ccccc1)C(c1ccccc1)=NN=2 (centres undefined)	-10.6%	33.1%[activator]
